Bioassay records from PubChem.
TAR Tat displ – TAR RNA-Tat peptide displacers, HIV-1, primary screen, biochemical, FRET, FAM/TAMRA-labeled Tat. HIV-1 TAR RNA, Tat peptide displacement FRET; stronger effect = higher value. z-score (no concentration beside the values). 100,000 compounds, 0.6% hits;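 note: score is relative to mean and SD of negative controls; some compounds called inactive have numbers as strong as hits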
CDC25B CDK2 inh – primary biochemical HTRF screen for blockers of M-phase inducer phosphatase 2 binding to CDK2/cyclin A | P30305+P24941 | z-score (test concentration not listed) | HTRF CDC25B-CDK2/CyclinA binding, anti-His/anti-Flag; stronger effect = higher value | 94,000 compounds, 0.72% hits;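 note: score is relative to mean and SD of negative controls; strong numbers were not always called active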
* hit, by the source's call; / = no result given.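 Rule for the calls: active = z-score from 3 up in half or more of its runs; inactive = the rest.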

SMILES	TAR Tat displ	CDC25B CDK2 inh
Cc1sc(-c2nc(-c3ccc(Cl)cc3)no2)cc1S(=O)(=O)N1CCc2ccccc2C1	1.55	/
Cn1c(=O)c2c(nc(CN3CCN(Cc4ccccc4)CC3)n2CCCc2ccccc2)n(C)c1=O	1.56	-0.97
O=C(Nc1ccccc1C(F)(F)F)c1ccccc1I	/	-0.72
COc1cccc2c1NC(c1cccc(Br)c1)C1CC=CC21 (configuration not stated)	-1.67	-0.83
Fc1ccc(-n2ncc3c(NC4CCCC4)ncnc32)cc1	3.04	/
COC(=O)C1=NNC(C(=O)OC)=C2COC3(CCCCC3)OCC12 (configuration not stated)	/	-0.58
COc1ccc(OC)c(C2Nc3ccc4ccccc4c3C3=C2C(=O)CCC3)c1 (configuration not stated)	0.71	-1.43
O=C(CCS(=O)(=O)c1cc2c3c(c1)CCN3C(=O)CC2)N1CCCCC1	1.46	/
Cc1cc(NC(=O)C(C)(C)Oc2ccc(Cl)cc2)no1	-0.55	0.46
O=c1c2ccccc2[nH]c(=S)n1CCc1ccccc1	/	-6.04
CCCNC(=O)N1CCCC1c1ccco1 (configuration not stated)	1.04	-2.34
COc1ccc(NC(=O)Nc2cc(C)cc(C)c2)cn1	/	1.14
COC(=O)c1cc(NC2c3ccccc3C(=O)N2c2ccc(Cl)cc2)cc(C(=O)OC)c1 (configuration not stated)	0.99	-0.65
Cc1nc(Oc2ccccc2C)c2oc3ccccc3c2n1	1.25	/
CC(C)C(NS(=O)(=O)c1cccs1)C(=O)NCCN1CCOCC1 (configuration not stated)	1.29	/
CC(=O)N1CCc2cc(Br)cc(S(=O)(=O)NCC3COc4ccccc4O3)c21 (configuration not stated)	/	0.87
CCN1CCN(Cc2ccc(NC3=NS(=O)(=O)C(c4ccc(C(C)C)cc4)=C3C)cc2)CC1	-0.73	-1.34
Cc1ccc(NC(=O)CSc2nc(-c3cccs3)nc3cc(=O)[nH]n23)cc1	0.66	/
Fc1ccc(CN2CCc3nc(Nc4ccc5c(c4)OCCO5)ncc3C2)cc1F	1.31	/
CC1Cc2cc(S(=O)(=O)N(C)CC(=O)Nc3ccccn3)ccc2N1C(=O)C1CC1 (configuration not stated)	0.55	/
CC1Cc2cc(S(=O)(=O)CCC(=O)Nc3ccccc3)ccc2N1C(=O)C1CC1 (configuration not stated)	0.1	/
Cc1nc(-c2csc(S(=O)(=O)NC3CCCCC3)c2)no1	1.14	/
CCn1c(C(=O)N2CCc3ccccc3C2)cc2sccc21	0.88	1.99
O=S(=O)(c1cc(-c2noc(C3CC3)n2)cs1)N1CC=C(c2ccccc2)CC1	0.05	/
O=C(N/N=C/c1c(Cl)cccc1Cl)c1nc(-c2ccc([N+](=O)[O-])cc2)no1	/	-0.88
COCc1[nH]nc2c1C(c1ccc(C(C)C)cc1)C(C#N)=C(N)O2 (configuration not stated)	0.71	-1.83
CCOC(=O)c1c(C)oc2ncnc(NC(CCSC)C(=O)OC)c12 (configuration not stated)	-0.12	/
COc1ccc(Nc2c(-c3ccccc3)nc3cnccn23)cc1	/	-0.41
CN(/N=C/c1ncc([N+](=O)[O-])n1C)c1cnn(-c2ccccc2)c(=O)c1Cl	/	-2.11
CSc1ccc(NC(=O)NCc2cccnc2)cc1	/	-0.87
CCCCOC(=O)c1cccc(NC(=O)c2cc3ccccc3o2)c1	/	-0.19
CC(C)n1cc2c(c1-c1cccc(Br)c1)c(=O)n(C)c(=O)n2C	2.23	0.5
O=S(=O)(NCc1csc2ccc(Cl)cc12)c1cccc2nonc12	/	-4.15
CCn1c(=O)c2sccc2n2c(CCCC(=O)NC3CCCCC3C)nnc12 (configuration not stated)	-0.62	/
CCn1ccc2cc(S(=O)(=O)N3CCCN(C(=O)NCC(C)C)CC3)ccc21	1.15	/
N/N=C(/Cn1nnc(N2CCCCC2)n1)c1ccc(Cl)cc1	/	-0.56
CC(C)Sc1nc2ccccc2c(=O)[nH]1	/	-0.63
Cc1cccc(OCCN2CCNC2=S)c1	/	-1.24
CCCNC(=O)c1oc(=O)c2ccccc2c1-c1ccccc1	/	-0.89
CCOC(=O)N1CCN(S(=O)(=O)c2ccc3c(c2)CCCC(=O)N3)CC1	1.78	/
Cc1cccc(NC(=O)NC2=C(C#N)C(C)(C)Cc3ccccc32)c1	0.72	-2.8
CC1CSc2ccc(S(=O)(=O)N3CCN(c4ccccc4)CC3)cc2NC1=O (configuration not stated)	1.17	/
O=C1CC2(CCN(C(=O)NCC3CCCO3)CC2)Oc2ccccc21 (configuration not stated)	0.54	/
COc1ccc(-c2cc(-c3ccccc3)nc(-c3ccc(C)o3)c2)cc1	/	-14.9
CCOC(=O)c1c(C)oc2ncnc(N(C)C3CCCCC3)c12	-0.04	/
CCCCNC(=O)c1cnc(N(C)C)nc1C	1.88	/
Cc1oc2c(F)c(F)c(F)c(F)c2c1C(=O)ONC(N)c1ccc(OS(=O)(=O)N(C)C)cc1 (configuration not stated)	/	-2.66
CC(=O)c1ccc(C#Cc2ccccc2)cc1	/	-1.19
C=CCn1c(SCC(=O)C(C)(C)C)nc2ccccc2c1=O	/	-1.31
CCOc1ccc2nc(NS(=O)(=O)c3ccc4c(c3)NC(=O)CC(C)S4)sc2c1 (configuration not stated)	0.55	/

Next compounds:
SMILES	TAR Tat displ	CDC25B CDK2 inh
CCOC(=O)CCCn1ccc2cc(S(=O)(=O)N3CCCC3)ccc21	1.57	-0.88
O=C(c1noc2c1CSc1ccccc1-2)N1CC=C(c2ccccc2)CC1	0.67	3.64
NC(=O)c1ccc2c(c1)OCCCO2	2.33	/
CC(=O)Nc1ccc(S(=O)(=O)[C@H]2CS(=O)(=O)C[C@@H]2NCC(C)C)cc1	-0.9	-1.93
Cc1ccc(C(=O)c2ccccc2[N+](=O)[O-])cc1	/	0.06
CCn1c(C(=O)OC)cc2occc21	-0.58	-0.27
O=C(Nc1cccc(-c2ncon2)c1)C(Cl)(Cl)Cl	/	0.81
C=CCSc1nnc(-c2ccc(Cl)cc2)n1CC(OC)OC	/	1.37
COCCCN(Cc1ccco1)C(=O)c1sc2nc3n(c(=O)c2c1C)CCCCC3	1.33	/
COc1cccc(OC)c1C(=O)c1cc[n+](C)cc1	/	-0.34
CCOC(=O)Nc1ccc2c(c1)nc1n2CCN(CCCOC)C1	-0.04	-0.22
CCOc1ccc(C2C(C(=O)OC)=C(C)NC3=C2C(=O)c2ccccc23)cc1OCC (configuration not stated)	0.87	-1.15
COc1ccc(CCNc2cc(C)nc3c(-c4ccc(OC)c(OC)c4)c(C)nn23)c(OC)c1	-0.63	-1.7
O=C(O)c1c(-c2ccccc2)nnc2ccccc12	-0.4	-0.52
CN1CSC2=C(C#N)C(c3ccc(Br)cc3)CC(=O)N2C1 (configuration not stated)	-0.93	1.4
O=C(NCc1csc(-c2cccs2)n1)[C@H]1CSCN1C(=O)c1ccc(Cl)cc1	1.86	/
Cc1cc(C)cc(-n2nnc(-c3nc(-c4cccnc4)no3)c2N)c1	-1.16	/
CCOc1ccc(-c2noc(-c3nnn(-c4cc(OC)ccc4OC)c3N)n2)cc1	1.39	/
Cc1ccc(-c2cnc(C3CC3)o2)cc1S(=O)(=O)Nc1cccc(Cl)c1	-0.44	/
O=C(CSc1nc2c(c(=O)[nH]1)CCC2)N(Cc1ccccc1)Cc1ccccc1	0.71	-0.79
O=c1ccc2cc(S(=O)(=O)NCCN3CCN(c4cccc(Cl)c4)CC3)ccc2[nH]1	3.66	/
CSc1n[nH]c(NC(=O)c2ccccc2Cl)c1-c1ccc([N+](=O)[O-])cc1	/	-2.43
Cc1oc(-c2ccc(OC(C)C)cc2)nc1Cn1nc(C)c2c(C)onc2c1=O	-0.88	/
CN(C)c1ccc(/C=C2\C(=O)ON=C2c2ccccc2)cc1C#N	/	-0.44
CCc1oc(C(=O)O)cc1CN1CCOCC1	0.73	-1.72
N#CC1=C2SCN(C3CCCCC3)CN2C(=O)CC1c1cccc2ccccc12 (configuration not stated)	0.13	4.16*
COc1cccc(/C=C(\C#N)c2nn(CCO)c(N)c2C#N)c1OC	/	-0.4
CCCC1(C)Nc2ccccc2-c2nc3ccccc3n21 (configuration not stated)	/	-0.31
Cc1c(C(=O)O)sc2ncnc(NC3CCCCC3)c12	5.98*	/
Cc1cc(-c2n[nH]c(=S)n2C)nn1-c1ccc([N+](=O)[O-])cc1	/	-0.55
CCOc1cccc2c1OC(c1ccc(C(=O)OC)cc1)N1N=C(c3cccnc3)CC21 (configuration not stated)	/	-2.27
Cc1ccc(CNc2ccc(N3CCOCC3)c(Cl)c2)s1	1.45	1.11
Cc1nc2scc(C)n2c(=O)c1S(=O)(=O)Nc1ccc(F)cc1	-0.22	-0.29
O=C1CC(c2ccc(Cl)cc2)Cc2c1cnc1[nH]n(-c3ccccc3)c(=O)c21 (configuration not stated)	-0.57	-1.21
O=C(Nc1ccccc1Br)N1CCN(Cc2nc3cccnc3n2-c2ccccc2)CC1	1.95	/
O=C(O)Cc1c(C(=O)O)nc2ccccc2c1C(=O)O	0.86	0.61
FC(F)(F)c1cc(-c2ccc3c(c2)CCC3)nc2cc(-c3cccs3)nn12	/	-2.26
CCOC(=O)c1c(S(=O)(=O)N2CC(CC)Oc3ccc(Cl)cc32)c(C)n(C)c1C (configuration not stated)	1.22	/
CCn1c2ccccc2c2nnc(NCCN3CCN(c4cccc(C)c4C)CC3)nc21	0.25	-0.36
CCCCC(=O)Nc1sc2c(c1C(N)=O)CCCC2	1.59	-0.68
CSc1ncc(OCc2ccccc2)c(=O)[nH]1	/	0.04
Cc1ccc(OCCn2c(C3CCCO3)nc3ccccc32)cc1 (configuration not stated)	0.66	0.16
CSc1ccc(NC(=O)C(C)n2nc(-c3ccc4c(c3)OCCO4)ccc2=O)cc1 (configuration not stated)	0.11	-0.43
CCCc1c(C)nc2ncnn2c1Sc1ccc(N(C)C)cc1	0.95	/
CCC(C(=O)N1CCc2ccccc21)n1nc(C)c2sc3ccccc3c2c1=O (configuration not stated)	2.59	-2.21
COc1cc2c(cc1OC)n(CC(=O)NCC1CCCO1)n1c(C)cc(=O)nc21 (configuration not stated)	/	-3.87
O=S(=O)(c1ccc(Cl)cc1)N1CCSCC1	/	-1.3
CC1=Nn2c(nnc2-c2ccc(C)cc2)SC1	0.78	-1.83
N/C(Cc1cccs1)=N\OC(=O)c1ccccc1	/	-1.69
CC1CC(C)(C)NC(=S)N1CC(=O)NCCCN1CCN(c2ccccc2F)CC1 (configuration not stated)	/	0.53

More results follow.
SMILES	TAR Tat displ	CDC25B CDK2 inh
O=C(O)c1c[nH]c2ccc(Br)cc2c1=O	1.72	-2.75
Cc1cccc(CC2CC(=O)N(c3ccc4ccccc4n3)C2=O)c1 (configuration not stated)	1.94	0.78
CC1CCN(S(=O)(=O)c2cn(CC(=O)N3c4ccccc4CC3C)cn2)CC1 (configuration not stated)	-0.07	/
COc1ccc(C(=O)CSc2nc(-c3cccs3)nc3c2c(=O)n(C)c(=O)n3C)cc1	/	-1.47
CCCSc1nc(=O)c2c(n1C)NC(=O)CC2c1cc(F)ccc1F (configuration not stated)	0.16	0.05
Cc1ccc(NS(=O)(=O)c2cc(-c3ccc(=O)[nH]n3)cc(C)c2C)cc1C	0.46	/
c1ccc(-n2ncc3c(N4CCc5ccccc54)ncnc32)cc1	-1.14	1.84
Cc1ccc(C(=O)COC(=O)c2ccc3nc(C)c(C)nc3c2)cc1	0.22	-0.2
CCCNC(=O)c1oc2ccc3c(c2c1C)C=CC1(CCCC1)O3	-0.34	/
COc1ccc(NC(=O)COCc2cc(-c3ccco3)on2)cc1OC	1.19	/
CCCN(CCC)C(=O)c1cc2c(s1)-c1ccccc1S(=O)(=O)C2	2.31	-2.02
O=C1Cc2cc(S(=O)(=O)Nc3ccc(Br)cc3)cc3c2N1CCC3	-1.04	/
O=C(NCc1ccncc1)C(=O)NCC(c1ccc2c(c1)OCO2)N1CCOCC1 (configuration not stated)	0.9	/
Cn1c(=O)[nH]c(=O)c2c1nc(N1CCc3ccccc3C1)n2CCSc1ncccn1	0.81	-1.22
NC(N)=NS(=O)(=O)c1ccc(N/C=C\C(=O)c2ccc(F)cc2)cc1	/	-1.58
O=C(NCCC1=CCCCC1)c1c(O)nc2ccccn2c1=O	1.06	-1.64

Reformatted: entries from further up
Values in the order: TAR Tat displ, CDC25B CDK2 inh
CC1CC(C)(C)NC(=S)N1CC(=O)NCCCN1CCN(c2ccccc2F)CC1 (configuration not stated)
 : /, 0.53
O=C(O)c1c[nH]c2ccc(Br)cc2c1=O
 : 1.72, -2.75
Cc1cccc(CC2CC(=O)N(c3ccc4ccccc4n3)C2=O)c1 (configuration not stated)
 : 1.94, 0.78
CC1CCN(S(=O)(=O)c2cn(CC(=O)N3c4ccccc4CC3C)cn2)CC1 (configuration not stated)
 : -0.07, /
COc1ccc(C(=O)CSc2nc(-c3cccs3)nc3c2c(=O)n(C)c(=O)n3C)cc1
 : /, -1.47
CCCSc1nc(=O)c2c(n1C)NC(=O)CC2c1cc(F)ccc1F (configuration not stated)
 : 0.16, 0.05
Cc1ccc(NS(=O)(=O)c2cc(-c3ccc(=O)[nH]n3)cc(C)c2C)cc1C
 : 0.46, /
c1ccc(-n2ncc3c(N4CCc5ccccc54)ncnc32)cc1
 : -1.14, 1.84
Cc1ccc(C(=O)COC(=O)c2ccc3nc(C)c(C)nc3c2)cc1
 : 0.22, -0.2
CCCNC(=O)c1oc2ccc3c(c2c1C)C=CC1(CCCC1)O3
 : -0.34, /
COc1ccc(NC(=O)COCc2cc(-c3ccco3)on2)cc1OC
 : 1.19, /
CCCN(CCC)C(=O)c1cc2c(s1)-c1ccccc1S(=O)(=O)C2
 : 2.31, -2.02
O=C1Cc2cc(S(=O)(=O)Nc3ccc(Br)cc3)cc3c2N1CCC3
 : -1.04, /
O=C(NCc1ccncc1)C(=O)NCC(c1ccc2c(c1)OCO2)N1CCOCC1 (configuration not stated)
 : 0.9, /
Cn1c(=O)[nH]c(=O)c2c1nc(N1CCc3ccccc3C1)n2CCSc1ncccn1
 : 0.81, -1.22
NC(N)=NS(=O)(=O)c1ccc(N/C=C\C(=O)c2ccc(F)cc2)cc1
 : /, -1.58
O=C(NCCC1=CCCCC1)c1c(O)nc2ccccn2c1=O
 : 1.06, -1.64
